gsp antagonist: gsp mutant antagonism | gsp-mutant cells, cAMP HTRF, 30 min; control for the full effect not named in the record | Potency, µM (top dose mostly 76.9 µM), for inactives: at the highest dose activity change, negative = inhibition, hits mostly inhibitors | 340,000 compounds, 0.4% hits | AID 624288; active = falling curve of any shape with a large fitted effect; inconclusive = falling curve, mostly with a smaller effect; inactive = flat or rising curve; cell line not stated here;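 further: intracellular cAMP measured with PDE inhibitor Ro 20-1724 present during compound exposure; potency means the concentration at half of the fitted maximal effect; on the % scale 0 is the no-effect control and ±100 the full control effect; nearly all actives have a fitted effect of over 65% in size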
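G418-selected cells were plated in DMEM/10% FBS for 16-24 h at 37C, then treated with compounds plus the PDE inhibitor […] (300 uM solution added) for 30 min at 37C. Intracellular cAMP was measured by HTRF after 30 min lysis at room temperature.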
ClpP mod: qHTS Assay for Activators of ClpP; ATP-dependent Clp protease proteolytic subunit (Bacillus subtilis (strain 168)), P80244; purified B. subtilis ClpP, FRET peptide cleavage, 20 min; Potency, µM (top dose mostly 57.5 µM), without a hit: at the highest dose activity change, negative = active; 340,000 compounds, 1.9% hits; AID 651965, 2013; active = well fitted falling curve with a large enough effect; inconclusive = small, poorly fitted or top-dose-only effect; inactive = no such curve, though single readings can be large or run the other way; further: potency means the concentration at half of the fitted maximal effect; the source files actives as falling curves though it sought activators and does not explain the sign; nearly all actives have a fitted effect of over 65% in size; many hits overshoot -100%
Target sequence (P80244 whole entry, looked up): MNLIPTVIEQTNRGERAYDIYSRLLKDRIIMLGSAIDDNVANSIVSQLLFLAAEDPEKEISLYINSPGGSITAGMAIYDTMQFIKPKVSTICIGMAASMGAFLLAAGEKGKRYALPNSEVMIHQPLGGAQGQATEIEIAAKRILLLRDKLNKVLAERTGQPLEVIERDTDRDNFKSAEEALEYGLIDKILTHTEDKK
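Buffer: 100 mM Tris/HCl pH8, 100 mM KCl, 0.05% low protease BSA, 2.5% glycerol, 0.01% Tween-20. ClpP 10 microg/mL final; 20 min RT; delta FRET normalized to ADEP and DMSO controls.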
gsp ag: activates gsp, the McCune-Albright syndrome mutation | gsp mutant cells, cAMP HTRF, 30 min; control for the full effect not named in the record | 340,000 compounds, 0.13% hits | Potency, µM (doses to about 76.9 µM), inactives show at the highest dose activation (cAMP increase), hits mostly activators; active = well fitted activation curve with a large enough effect; inconclusive = small, poorly fitted or top-dose-only effect, or another doubt; inactive = no such curve, though single readings can be large or run the other way; cell line not stated here;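 further: phosphodiesterase inhibitor Ro 20-1724 added with compounds to block cAMP breakdown; potency means the concentration at half of the fitted maximal effect; nearly all actives have a fitted effect of over 60% in size; about a fifth of the inactives were tested at one dose only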
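Cells stably selected in G418 were plated at 2000/well, grown 16-24 hr, then given compounds in DMSO with the PDE inhibitor […] (300 uM solution added) for 30 min at 37C; cAMP was read by HTRF.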
Sfp PPTase inh: blocks B. subtilis Sfp PPTase activity | Potency, µM, for the others: max response, negative = inhibition, hits mostly inhibitors | AID 1490 | 310,000 compounds, 3.5% hits | Q9F4F7 | Biochemical Sfp PPTase activity, qHTS; active means well fitted inhibition curve with a large enough effect; inconclusive means small, poorly fitted or top-dose-only effect, or another doubt; inactive means no such curve, though single readings can be large or run the other way;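 further: the enzyme is Sfp with the accession as filed and its product quenches rhodamine fluorescence; potency means the concentration at half of the fitted maximal effect; 0% = enzyme reaction without inhibitor and -100% = no enzyme wells; top concentration of the series not given in the record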
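With Hepes-Na pH 7.6 buffer containing 10 mM MgCl2, Sfp (15 nM) modified BHQ-2-YbbR (12.5 uM) using rhodamine-CoA (5 uM). Two reads 30 minutes apart at 525/598 nm yielded each well's rate.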
Menin MLL FP FL: inhibitors of human menin-MLL interaction, wild-type MLL peptide; Fluorescence polarization, fluorescein-MLL peptide displacement from menin; FP activity change, % at 61.4 µM; 290,000 tested, under 10 active; inconclusive = falling polarisation curve, or a change in total fluorescence; inactive = total fluorescence flat and polarisation flat or rising; no compound was filed as active; the % refers to the polarisation; negative = inhibition;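 further: % of control where 0% means no effect; inhibitors lower the polarisation; unlabelled MLL peptide was the positive control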
PINK1 modulator: PINK1 expression modulation. PINK1 immunofluorescence, high-content cytometry, 24 h. Potency, µM (top dose mostly 76.6 µM), without a hit: top-dose activation (PINK1 increase), most hits filed as activators. 410,000 compounds, 0.2% hits; active = well fitted activation curve with a large enough effect; inconclusive = small, poorly fitted or top-dose-only effect; inactive = flat fitted curve, though single readings scatter; cell line not stated here;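 further: potency means the concentration at half of the fitted maximal effect; % of control where 0% means no effect; nearly all actives have a fitted effect of over 65% in size; a mitochondrial uncoupler was the plate control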
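A stable cell line was treated with compounds at 5 concentrations for 24 hours, with CCCP as control. PINK1 levels and mitochondrial localization were measured by immunofluorescence with mitochondrial, cell and nuclear markers after fixation, read by laser-scanning cytometry.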
D2 ag: activates the human D2 dopamine receptor; DiscoveRx PathHunter D2 beta-arrestin, luminescence, 90 min; 100% = 57 uM dopamine signal; activation, % (concentration not given with the values); 360,000 compounds, 0.084% hits; in the data active = activation above about 40%; inconclusive = about 15% to 40%; inactive = below about 15%; further: the text of the record calls up to 30% inactive
Target sequence (P14416 whole entry, looked up): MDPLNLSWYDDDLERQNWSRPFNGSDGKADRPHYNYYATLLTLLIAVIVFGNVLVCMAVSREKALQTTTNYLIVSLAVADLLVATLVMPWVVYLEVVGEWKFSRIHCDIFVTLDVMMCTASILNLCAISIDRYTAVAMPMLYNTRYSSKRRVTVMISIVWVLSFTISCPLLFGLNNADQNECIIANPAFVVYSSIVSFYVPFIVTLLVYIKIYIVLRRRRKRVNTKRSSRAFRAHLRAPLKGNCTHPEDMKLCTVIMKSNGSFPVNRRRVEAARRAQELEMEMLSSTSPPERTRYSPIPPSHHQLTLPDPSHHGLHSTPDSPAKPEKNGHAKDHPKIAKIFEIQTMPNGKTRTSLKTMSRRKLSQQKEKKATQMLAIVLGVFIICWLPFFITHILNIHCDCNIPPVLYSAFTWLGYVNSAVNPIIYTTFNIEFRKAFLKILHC
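Agonist mode: compounds alone added to overnight-plated D2 PathHunter cells for 90 min at 37 C, with 57 uM final dopamine (EC100) defining full response. Beta-arrestin recruitment detected by chemiluminescent reagent, read after 1 h at ambient temperature.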
* hit, by the source's call; ? = inconclusive; . = no result given; & = joins results of further samples; [ ] = remark or other dose.

SMILES	gsp antagonist	ClpP mod	gsp ag	Sfp PPTase inh	Menin MLL FP FL	PINK1 modulator	D2 ag
COc1ccc2c(c1OC)C(=O)N1C2SC[C@H]1C(=O)NC1CCCCC1 (some centres undefined)	-13%	4.5%	.	7%	0.2	0.0%	-5.4
CC1CN(S(=O)(=O)c2cccc(C(=O)OCC(=O)N3CCCCCC3)c2)CC(C)O1 (centres undefined)	3%	.	2%	.	.	-1.3%	-2.8
COC(=O)c1ccc(Nc2cc(C)nc3ccccc23)cc1	6%	.	-36%[inhibitor]	-6%	4.1	3.9%	-1.9
CC1Cc2nc(SCC(=O)Nc3ccc(F)cc3)n(C)c(=O)c2S1 (centres undefined)	-10%	-1.5%	-5%	12%	-2.5	0.1%	2.8
CC(NC(=O)C(c1ccccc1)c1ccccc1)C(=O)N1CCCCC1 (centres undefined)	-10%	-1.7%	-58%[inhibitor]	17%	-1.9	-0.9%	-1.4
CCOC(=O)c1c2c(c(=S)n(-c3ccccc3)c1N)CCC2	1%	-4.3%	16%	13µM*	-3.2	8.1%	0.5
CC(C)N1C(=O)CSC1c1ccc(Br)cc1 (centres undefined)	4%	.	-21%	-7%	-1.9	5.2%	-3.0
Fc1ccc(-n2nnc(-c3nccs3)n2)cc1	8%	-2.1%	.	-5%	-1.7	-0.5%	-1.3
Cc1ccc(N(CCC#N)C(=O)CCl)cc1C	3%	.	9%	2%	0.5	-3.2%	-2.7
CC(C)(C)C(CN1CCCC1)OC(=O)c1ccccc1 (centres undefined)	-3%	-18%	18%[15.4 µM]	5%	2.5	1.9%	-3.0
CCOc1ccc(S(=O)(=O)N(CC)CC)cc1N	5%	-0.8%	-78%[inhibitor]	18%	-1.7	3.1%	-4.0
CC(=O)Nc1cccc(-c2csc(Nc3cccc(C)n3)n2)c1	?	-6.6%	9%	79µM*	1.5	.	-2.5
CCCNC(=O)c1ccc(N2CCC3(CC2)CC(c2ccccc2)=NO3)c(NC(=O)c2ccccc2)c1	-11%	?	-61%[inhibitor]	56µM*	4.2	0.9%	-0.2
Cc1cc(NC(=O)C(Cl)Cl)cc2c1OCO2	4%	.	29%	.	.	-0.4%	0.0
O=C(COC(=O)C1(c2ccccc2F)CCCC1)NCc1ccc2c(c1)OCO2	-20%	-3.1%	-10%	4%	5.9	2.4%	6.0
CCCCn1c(SCC(=O)Nc2cc(C(F)(F)F)ccc2Cl)nnc1C(CC)N(C)C (centres undefined)	-14%	1.6%	-6%[15.4 µM]	-1%	2.9	0.3%	0.2
O=C(N/N=C/c1ccc(-c2ccccc2Cl)o1)c1ccccc1	-29%	.	-12%[15.4 µM]	12%	-1.8	0.3%	-5.7
c1ccc(Oc2cccc(OCCn3cncn3)c2)cc1	9%	-1.1%	-5%	-6%	1.7	-0.6%	-0.8
Cc1c(C(=O)Nc2nc3ccccc3[nH]2)oc2ccccc12	?	-6.7%	-54%[inhibitor]	?	6.4	12%	1.7
Cc1cccc(-c2nc(CSCC(=O)NCCCN3CCOCC3)c(C)o2)c1	10%	-22%	-2%	12%	1.8	-0.3%[38.3 µM]	-3.8
COc1ccc(N(CC(=O)N2CCN(Cc3ccccc3)CC2)S(C)(=O)=O)c(OC)c1	4%	0.7%	16%	1%	-3.7	0.5%	-6.1
CSCC[C@H](NC(=O)c1cc([N+](=O)[O-])ccc1Cl)c1nc2ccccc2[nH]1	-6%	1.1%	1%	-1%	2.2	-1.2%	0.2
CCCC(C)NC(=S)Nc1cc(C)cc(C)c1 (centres undefined)	6%	-7.9%	-11%[15.4 µM]	23%	0.6	6.9%	0.5
N#Cc1cnn2cc(CCN3CCOCC3)c(-c3ccc(F)cc3)nc12	-2%	.	14%	11%	-0.1	1.4%	0.7
COC1OC2COC(c3ccccc3)OC2C(OC(=O)c2ccccc2)C1OC(=O)c1ccccc1 (centres undefined)	-8%	.	11%	.	.	-2.3%	0.8
N#CC1CCCc2c1[nH]c1ccc([N+](=O)[O-])cc21 (centres undefined)	-5%	.	12%	-6%	-1.4	-0.6%	-0.1
Cc1cccnc1C(NC(=O)C1CCN(CCOc2ccc(F)cc2)CC1)c1ccc(F)cc1 (centres undefined)	.	2.2%	.	.	.	-0.5%	-1.3
O=C(N/N=C/c1cc([N+](=O)[O-])ccc1O)C(O)(c1ccccc1)c1ccccc1	-19%	.	?	-4%	2.7	5.7%	-11
c1ccc(C2c3[nH]c4ccccc4c3CCN2Cc2cccn2-c2ccccn2)nc1 (centres undefined)	-7%	-1.4%	-39%[inhibitor]	-6%	-3.2	-0.2%	4.5
Cc1c(NC(=O)Nc2ccc(C#N)cc2)c(=O)n(-c2ccccc2)n1C	3%	-0.4%&-9.7%	-35%[inhibitor]	7%	-23	-0.6%&-1.4%	-3.4
O=C1Nc2ccc(Br)cc2C1Cc1ccccc1F (centres undefined)	9%	.	-34%[inhibitor]	5%	-1.7	3.0%	0.3
COC(=O)[C@@]1(Cc2ccc(F)cc2)[C@H]2c3cc(C(=O)N4CCCC4)n(C[C@H](O)CO)c3C[C@H]2CN1C(=O)c1ccccc1	.	-0.3%	.	37%[activator]	-2.8	1.6%	.
Cc1cccc(C(=O)Nc2ccc(N3CCN(c4ccc(C(F)(F)F)cn4)CC3)nc2)c1	8%	1.1%	7%[15.4 µM]	1%	3.6	0.6%	-2.0
CC(C)c1[nH]nc2c1C(c1ccco1)C(C#N)=C(N)O2 (centres undefined)	1%	-1.0%	?	12%	5.0	0.5%	5.2
CC1CC[C@@]2(OC1)O[C@H]1CC3[C@@H]4C[C@@H](O)[C@@]5(O)C[C@@H](O)[C@H](O)C[C@]5(C)[C@H]4CC[C@]3(C)[C@H]1[C@@H]2C (some centres undefined)	6%	.	4%	9%	-1.0	0.1%	-2.9
O=C(c1ccc(Cn2c(=S)[nH]c3ccc(N4CCOCC4)cc3c2=O)cc1)N1CCN(c2ccc(F)cc2)CC1	?	20µM*	0%[15.4 µM]	6%	2.3	2.1%	2.3
O=C(CSc1ncnc2c1cnn2-c1cccc(Cl)c1)NCC1CCCO1 (centres undefined)	-7%	-2.6%	-21%	8%	0.7	4.1%	-0.2
CCCCn1c(N)c(N(CC)C(=O)c2ccc3c(c2)S(=O)(=O)c2ccccc2C3=O)c(=O)[nH]c1=O	16%	-4.2%	1%	-7%	2.7	-0.8%	-4.2
N#Cc1ccccc1-c1ccc2ncnc(NCc3cccnc3)c2c1	.	.	.	-7%	-0.6	2.3%	.
Fc1ccc(-c2nc3c(Cl)cc(C(F)(F)F)cn3c2Cc2ccccc2)cc1	.	-21%	.	.	.	3.7%	-7.1
COc1cccc(Cn2cc(N)cn2)c1	-6%	-0.7%	16%	16%	-1.1	1.1%	?
c1ccc(-c2ccccc2OCc2nnc3n2CCC3)cc1	-11%	-3.3%	-28%	5%	0.1	-1.6%	4.2
OCC1(Cc2ccccc2)CCCN(Cc2c[nH]c3ccccc23)C1 (centres undefined)	8%	.	17%	10%	7.7	10%	-3.3
O=C(O)C(Cc1cc2ccccc2[nH]1)N1C(=O)C2CC=C(Cl)CC2C1=O (centres undefined)	-1%	0.7%	14%	11%	-0.4	3.9%	-2.7
CCCCN(C(=O)c1cc(CC)c(C)s1)c1c(N)n(CCC)c(=O)[nH]c1=O	7%	1.4%	4%[15.4 µM]	.	.	0.7%	-0.9
CC1=[N+]([O-])C(C)(C)CC(C)(C)c2ccccc21	7%	-1.0%	-8%	8%	2.0	1.3%	-2.5
O=C(Nc1ccc2nc(-c3cccs3)[nH]c2c1)c1cccs1	4%	-22%	37%	-8%	6.4	1.1%	-0.2
Cn1c(-c2ccsc2)c(-c2cccs2)c2cc(-c3ccc4[nH]ccc4c3)ccc21	12%	?	.	.	.	7.5%	-0.7
CC(Oc1ccc(Cl)cc1)C(=O)NCC1CCCO1 (centres undefined)	7%	.	11%[15.4 µM]	4%	3.8	1.3%	1.2
O=C(NC1=NCCS1)C1CCN(S(=O)(=O)c2cc([N+](=O)[O-])ccc2Cl)CC1	6%	-1.2%	-7%[15.4 µM]	.	.	0.7%	8.3
Cc1n[nH]c(=O)nc1Nc1ccc(O)cc1	12%	-2.0%	-13%	-4%	-0.7	11%[38.3 µM]	-1.8
Cc1cc(OCC(=O)Nc2ccccc2N2CCCC2)ccc1C(C)C	-26%	1.7%	15%	.	.	16%	2.2
Cc1cc(C)cc(-n2c(C)cc(/C=N/NC(=O)CSc3ncccn3)c2C)c1	-8%	2.9%	-43%[inhibitor]	-25%	7.0	-0.2%	-8.8
CCOC(=O)CC[C@H](NC(=O)Cn1cnc2c(OCc3ccccc3)ncnc21)C(=O)OCC	9%	-1.8%	.	.	.	0.8%	0.4
CSc1ccccc1-c1nnc(NC(=O)Cc2ccccc2)o1	12%	-13%	?	10%	-1.2	6.7%	-6.0
O=C(Cn1ncnn1)OCc1ccccc1Cl	-3%	-0.9%	4%	8%	-1.3	0.3%	1.5
C/C(=N\NC(=O)c1ccc(Br)cc1)C1C(=O)c2ccccc2C1=O	?	0.5%	-2%	2%	0.0	9.2%[38.3 µM]	-1.6
O=C1CCC([N+](=O)[O-])C(c2ccc(-c3ccccc3)cc2)N1 (centres undefined)	-1%	.	1%	.	.	0.4%	-0.7
Cc1c(S(=O)(=O)NC2CCCCC2)c(=O)n(C)c(=O)n1C	1%	.	16%[15.4 µM]	.	.	2.5%	4.2
CN1CCN(c2ccccc2NC(=O)c2ccc3c(c2)OCCO3)CC1	15%	-0.7%	-5%[15.4 µM]	9%	4.5	0.3%	-18
N#Cc1nc(Cc2cccc3ccccc23)oc1NCC1CCCO1 (centres undefined)	-13%	-0.2%	-49%[inhibitor]	8%	1.8	8.9%[38.3 µM]	0.1
S=c1[nH]nc(-c2c[nH]c3ccccc23)o1	-3%	.	-5%	-14%	3.0	-0.3%	0.2

High-throughput results: PubChem BioAssay, National Center for Advancing Translational Sciences (NCATS)

Hits appear at their usual frequency (roughly 5.1% active in at least one column).
